# Screens from PubChem BioAssay.
# Menin MLL FP TR: displaces Texas Red mutant MLL peptide from human menin | O00255 | Menin + Texas Red MLL mutant peptide, fluorescence polarization | 0.23% of 270,000 active | AID 1768 | Potency, µM (doses to about 61.6 µM), for the others: at the top dose FP activity change, negative = inhibition, actives largely listed as inhibitors; active = well fitted inhibition curve with a large enough effect in the polarisation, with a control signal flat, not every such curve was filed as active; inconclusive = small, poorly fitted or top-dose-only effect, or effect the other way, or a change in a side signal; inactive = no such curve, though single readings can be large or run the other way; the % refers to the polarisation; also: potency is read from the fitted curve at half-maximal effect; % of control where 0% means no effect; many of its hits are not listed in these tables
# Giardia killer: kills Giardia lamblia; activity change, % at 7.66 µM, hits read low; Giardia lamblia trophozoite viability; 0.15% of 340,000 active; in the data active = activity change below about -80%; inconclusive = between about -30% and that limit;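 also: parasites exposed to compound for two days anaerobically before the ATP read; % is scaled to controls: 0 for no effect and ±100 for the full control effect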
#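 Each well holds 100 Giardia trophozoites and compound. After two days (48 hrs) at 37 deg C in anaerobic conditions, ATP is quantified by luminescence.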
# TRPV1 agonist: activates the human vanilloid receptor TRPV1. Q8NER1. TRPV1-expressing cells, Fluo-8 calcium influx, agonist mode. activation, % at 8.33 µM. 0.19% of 320,000 active. AID 540275; in the data active = activation above about 80%; inconclusive = between about 30% and that limit; also: 0% is about no effect
#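 TRPV1-expressing cells were cultured overnight at 35.5C and loaded with Fluo-8 calcium dye for 40 to 90 min at room temperature. After a 10 s baseline, compound was added and calcium influx was read kinetically for 3 min (ex 480/em 520 nm).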
# KCNH2 3.1 inh: blocks the human KCNH2 3.1 channel isoform | U2OS KCNH2 3.1, thallium flux FluxOr; stronger effect = lower value | activity change, % (tested at about 1.8 µM) | 0.95% of 340,000 active;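 active = maximum activity change below -70%; inconclusive = maximum activity change from -70% to -50%; inactive = maximum activity change above -50%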;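 also: thallium influx rate constant from kinetic fluorescence after stimulation buffer; % is scaled to controls: 0 for no effect and ±100 for the full control effect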
#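 Thallium flux via FluxOr fluorescence (Red40 quencher, 45 min loading) in U2OS cells virally expressing the KCNH2 3.1 isoform (1.77 x 10^8 /mL virus, overnight at 37 C). Rate constants from 2-min kinetic reads post-stimulation, normalised to positive and negative controls.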
# FBPA coupling cs: counter-screen for Giardia aldolase inhibitors: coupling enzyme system. coupling enzyme system counterscreen, AmpLite Red fluorescence. 0.67% of 290,000 active. activity change, negative = inhibition, % at 58.2 µM, hits read low; in the data active = activity change below about -30%; also: % is scaled to controls: 0 for no effect and ±100 for the full control effect
#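 Counterscreen lacking aldolase: glyceraldehyde-3-phosphate coupling-enzyme reagent preincubated 10 min at RT with compound (at 57.5 uM final), then substrate/coupling system with AmpLite Red added; fluorescence read at 525/598 nm after 20 min RT.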
# B2AR arrestin: recruits beta-arrestin to the human beta2-adrenergic receptor. beta-arrestin recruitment to beta2AR, cell-based reporter. Potency, µM (titrated, usually from 46.1 µM), for the others: at the highest dose activation, actives largely listed as activators. 0.02% of 330,000 active. P07550;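 also: potency is read from the fitted curve at half-maximal effect; 0% = DMSO controls and full agonism = EC100 isoproterenol or metaproterenol; nearly all actives have a fitted effect of over 65% in size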
# USP2a inh: inhibitors of human ubiquitin-specific protease USP2a; O75604; USP2 core, Ub-CHOP2 coupled fluorogenic reporter, 485/531; Potency, µM (titrated, usually from 38.3 µM), inactives show at the highest dose activity change, negative = inhibition, hits mostly inhibitors; 0.01% of 330,000 active; AID 463254;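 also: potency is read from the fitted curve at half-maximal effect; plate controls were DMSO wells for no effect and full inhibition by NEM control for full effect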
#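 USP2 core (10nM final) preincubated 30min RT with compound in 20mM Tris-HCl pH 8.0, 2mM CaCl2, 2mM beta-mercaptoethanol, 0.05% CHAPS; 25nM Ub-CHOP2 plus 25nM reporter substrate added, fluorescence (Ex485/Em531) read after 60min.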
# PKM2 activator: activators of human pyruvate kinase M2; purified PKM2, Kinase-Glo ATP luminescence, activation; response scale: 0% is enzyme alone, no compound; P14618; Potency, µM (titrated, usually from 57.5 µM), for the others: top-dose activation, usual class: activators; AID 1631; 0.34% of 260,000 active; also: potency is read from the fitted curve at half-maximal effect; % is scaled to controls: 0 for no effect and ±100 for the full control effect; nearly all actives have a fitted effect of over 55% in size
# Target sequence (P14618 whole entry, looked up): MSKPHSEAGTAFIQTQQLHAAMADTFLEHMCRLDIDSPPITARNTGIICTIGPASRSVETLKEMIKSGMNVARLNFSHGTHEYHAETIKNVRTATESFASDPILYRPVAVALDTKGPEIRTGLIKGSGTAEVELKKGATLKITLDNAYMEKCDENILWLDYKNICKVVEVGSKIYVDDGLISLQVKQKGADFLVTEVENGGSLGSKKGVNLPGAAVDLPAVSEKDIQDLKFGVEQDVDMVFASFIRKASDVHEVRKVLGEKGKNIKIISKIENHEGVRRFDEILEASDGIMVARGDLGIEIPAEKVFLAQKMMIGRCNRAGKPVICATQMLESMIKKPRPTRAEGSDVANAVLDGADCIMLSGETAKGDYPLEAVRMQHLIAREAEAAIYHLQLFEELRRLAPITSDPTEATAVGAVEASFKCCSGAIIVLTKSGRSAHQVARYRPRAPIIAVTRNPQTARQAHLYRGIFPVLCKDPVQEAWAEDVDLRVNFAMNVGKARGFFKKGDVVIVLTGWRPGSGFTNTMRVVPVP
#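 Kinase-Glo luminescence reports ATP generated from ADP (0.1 mM) and PEP (0.5 mM) by purified hPK-M2 after 1 h at room temperature, pH 7.2 imidazole buffer; intermediate enzyme activity allows detecting inhibitors and activators.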
# CXXC DNA block: inhibitors of human MLL CXXC domain-DNA interaction. Q03164. MLL-CXXC / FITC-HOXA9 DNA fluorescence polarization. Potency, µM (highest dose often 115 µM), inactives show at the highest dose activity change, negative = inhibition, actives largely listed as inhibitors. 0.037% of 290,000 active. AID 2662; active = well fitted inhibition curve with a large enough effect in the polarisation, with a control signal flat, not every such curve was filed as active; inconclusive = small, poorly fitted or top-dose-only effect, or effect the other way, or a change in a side signal; inactive = no such curve, though single readings can be large or run the other way; the % refers to the polarisation; also: potency is read from the fitted curve at half-maximal effect
#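 Steps: dispense CXXC domain solution (7 uM) → pin compounds or unlabeled HOX-A9 DNA control → 5 min ambient → add FLSN-HOX-A9 solution (50 nM) → spin → 30 min ambient → fluorescence polarization. Tris pH 7.5/NaCl/DTT/BSA buffer.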
# GALK inh: inhibitors of human galactokinase; P51570; Purified GALK, Kinase-Glo residual ATP luminescence; Potency, µM (series often up to 57.5 µM), without a hit: at the highest dose activity change, negative = inhibition, actives largely listed as inhibitors; 0.007% of 270,000 active; AID 1868; also: potency is read from the fitted curve at half-maximal effect; % is scaled to controls: 0 for no effect and ±100 for the full control effect
# Target sequence (P51570 whole entry, looked up): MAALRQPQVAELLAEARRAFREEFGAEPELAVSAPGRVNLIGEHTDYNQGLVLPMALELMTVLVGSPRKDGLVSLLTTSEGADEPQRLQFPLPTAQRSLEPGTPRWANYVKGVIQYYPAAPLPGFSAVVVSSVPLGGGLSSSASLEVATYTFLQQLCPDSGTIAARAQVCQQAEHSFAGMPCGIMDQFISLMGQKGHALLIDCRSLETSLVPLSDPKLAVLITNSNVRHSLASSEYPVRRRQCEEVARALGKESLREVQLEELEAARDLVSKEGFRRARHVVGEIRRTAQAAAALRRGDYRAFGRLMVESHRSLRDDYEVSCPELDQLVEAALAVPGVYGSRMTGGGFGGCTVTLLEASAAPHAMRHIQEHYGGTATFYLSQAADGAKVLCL
#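 Human GALK (5 nM) with 35 uM ATP and 100 uM galactose in 20 mM HEPES pH 8.0, 5 mM MgCl2, 60 mM NaCl, 1 mM DTT, 0.01% BSA. After 1 h at room temperature, leftover ATP was read by Kinase-Glo Plus luminescence.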
# The depositor's hits bear a star; ? = inconclusive; / = not tested or not shown; & = joins results of further samples; [ ] = another dose, or the depositor's remark. Unless noted, calls follow the shape of the dose curve; as a rule, active = well fitted curve in the direction sought with a large enough effect; inconclusive = small, poorly fitted or top-dose-only effect, or another doubt; inactive = no such curve, though single readings can be large; an effect the other way counts as inactive or inconclusive. The list is partial; the hit share may differ from the screen's.
item	canonical_smiles	TRPV1 agonist	GALK inh	Giardia killer	USP2a inh	B2AR arrestin
1	CC(=O)O[C@H]1CC2(C)[C@@H](C[C@@H](O)[C@H]3[C@@]4(C)CC[C@@H](O)[C@@H](C)[C@@H]4CC[C@@]32C)C1=C(CCC=C(C)C)C(=O)O (stereo partly drawn)	/	/	/	/	/
2	Cc1ccc(Cn2c(C)cc3c(c2=O)C(c2cccs2)C(C#N)=C(N)O3)cc1 (stereo not drawn)	-0.7	-1.0%	9.4	0.8%	-0.1%
3	O=C1CCC(NC(=O)c2ccccc2)C(=O)N1 (stereo not drawn)	-5.8	2.7%	20.5	-3.0%	-0.6%
4	OCC1O[C@H](OC2C(CO)O[C@@](O)(CO)C2O)C(O)C(O)C1O (stereo partly drawn)	/	/	/	/	/
5	C[C@]12CCC(=O)C=C1CCC1C2C(O)C[C@]2(C)C1CC[C@]2(O)C(=O)CO (stereo partly drawn)	/	/	/	/	/
6	CCc1c(C)[nH]c2c1C(=O)C(CN1CCOCC1)CC2 (stereo not drawn)	/	/	16.2	/	/
7	CC/C(=C(/CC)c1ccc(O)cc1)c1ccc(O)cc1	15.2	6.4%	8.4	-4.8%	0.0%
8	CC(=O)O[C@H]1C[C@@]2(C)[C@H](C[C@@H](O)[C@H]3[C@@]4(C)CC[C@@H](O)[C@@H](C)[C@H]4CC[C@@]32C)C1=C(CCC=C(C)C)C(=O)O	/	/	/	/	/

item	KCNH2 3.1 inh	CXXC DNA block	PKM2 activator	FBPA coupling cs	Menin MLL FP TR
1	/	0.9%	/	/	?
2	-6.9	35.3%[activator]	-2.3%	2.9	?
3	-18.1	0.2%	-7.8%	-1.5	-5.2%
4	/	17.5%	/	0.4	-2.2%
5	/	/	/	1.5	-0.3%
6	-10.3	-2.7%	/	/	3.7%
7	2.9	?	1.8%	4.5&1.5	22.3%&25.0%&31.7%
8	/	4.3%	/	-0.2	3.2%[24.8 µM]

# Limited to KCNH2 3.1 inh, FBPA coupling cs and GALK inh, for two of the compounds above:
item	SMILES	KCNH2 3.1 inh	FBPA coupling cs	GALK inh
4	OCC1O[C@H](OC2C(CO)O[C@@](O)(CO)C2O)C(O)C(O)C1O (stereo partly drawn)	/	0.4	/
5	C[C@]12CCC(=O)C=C1CCC1C2C(O)C[C@]2(C)C1CC[C@]2(O)C(=O)CO (stereo partly drawn)	/	1.5	/

# The main list resumes, starting two compounds before the break.
item	canonical_smiles	TRPV1 agonist	GALK inh	Giardia killer	USP2a inh	B2AR arrestin
7	CC/C(=C(/CC)c1ccc(O)cc1)c1ccc(O)cc1	15.2	6.4%	8.4	-4.8%	0.0%
8	CC(=O)O[C@H]1C[C@@]2(C)[C@H](C[C@@H](O)[C@H]3[C@@]4(C)CC[C@@H](O)[C@@H](C)[C@H]4CC[C@@]32C)C1=C(CCC=C(C)C)C(=O)O	/	/	/	/	/
9	Cc1nc2ccccc2n1S(=O)(=O)c1ccc(F)cc1	29.6	-0.3%	-1.6	1.4%	-0.2%
10	C[C@]12CCC(=O)C=C1CC[C@@H]1[C@H]2[C@@H](O)C[C@@]2(C)[C@H]1CC[C@]2(O)C(=O)CO	/	/	/	/	/
11	CCC(=O)N1CCC(NC(=O)Nc2ccc(OC(F)(F)F)cc2)CC1	-5.3	/	30.4[activator]	-0.3%	0.0%
12	CCCCCCCCCCCCCCCC[N+](C)(C)CC	-0.7	/	-4.0	3.2%	-0.1%
13	COc1cc(S(=O)(=O)n2c(C)nc3ccccc32)ccc1F	-0.2	-2.0%	-7.9	1.2%	0.2%
14	CC(=O)S[C@H]1CC2=CC(=O)CC[C@@]2(C)[C@H]2CC[C@@]3(C)[C@H](CC[C@]34CCC(=O)O4)[C@@H]12	/	/	/	/	/
15	CC(=O)[C@H]1CC[C@H]2C3CC=C4C[C@@H](O)CC[C@]4(C)C3CC[C@]12C (stereo partly drawn)	/	/	/	/	/
16	CCOC(=O)C(CCc1ccccc1)NC1CCc2ccccc2N(CC(=O)O)C1=O (stereo not drawn)	/	/	/	/	/

item	KCNH2 3.1 inh	CXXC DNA block	PKM2 activator	FBPA coupling cs	Menin MLL FP TR
7	2.9	?	1.8%	4.5&1.5	22.3%&25.0%&31.7%
8	/	4.3%	/	-0.2	3.2%[24.8 µM]
9	-1.2	-18.9%	/	3.3	-18.3%
10	/	-2.1%	/	/	3.0%
11	4.4	/	/	/	/
12	-16.5	?	/	/	-29.2%
13	0.5	-3.1%	12.2%	1.0	-8.8%
14	/	/	/	-1.7	-9.3%[24.8 µM]
15	/	-3.9%	/	/	-6.3%
16	/	-0.4%	/	-0.6&-0.2	1.5%&-8.4%

# Two successive records from above:
item	canonical_smiles	TRPV1 agonist	GALK inh	Giardia killer	USP2a inh	B2AR arrestin
9	Cc1nc2ccccc2n1S(=O)(=O)c1ccc(F)cc1	29.6	-0.3%	-1.6	1.4%	-0.2%
10	C[C@]12CCC(=O)C=C1CC[C@@H]1[C@H]2[C@@H](O)C[C@@]2(C)[C@H]1CC[C@]2(O)C(=O)CO	/	/	/	/	/

item	KCNH2 3.1 inh	CXXC DNA block	PKM2 activator	FBPA coupling cs	Menin MLL FP TR
9	-1.2	-18.9%	/	3.3	-18.3%
10	/	-2.1%	/	/	3.0%

# More compounds:
item	canonical_smiles	TRPV1 agonist	GALK inh	Giardia killer	USP2a inh	B2AR arrestin
17	O=C(Nc1nc2ccccc2n1CCN1CCCC1)c1ccc(Cl)cc1	7.3	0.7%	10.9	4.6%	-0.6%
18	COC(=O)c1nnn(-c2nonc2N)c1CSc1nc2ccccc2o1	-4.7	1.6%	3.7	1.0%	-0.3%
19	CC12CCC3c4ccc(O)cc4CCC3C1CCC2=O (stereo not drawn)	9.0	/	-15.2	1.3%	0.1%
20	CCCNC(C)(C)COC(=O)c1ccccc1	6.0	/	17.7	1.3%	-0.1%
21	CN(C)C(CNc1nnnn1-c1ccccc1)c1ccco1 (stereo not drawn)	-0.5	0.0%	-8.1	-2.2%	-0.6%
22	CCOc1ccc(NC(C)=O)cc1	2.5	/	4.5	-2.1%	0.5%
23	N=C(N)c1ccc(OCCCCCOc2ccc(C(=N)N)cc2)cc1 (tested in a mixture with another compound)	/	/	/	/	/
24	CC(=O)O[C@]1(C(C)=O)CC[C@@H]2[C@@H]3C=C(C)C4=CC(=O)CC[C@@]4(C)[C@H]3CC[C@]21C	/	/	/	/	/
25	Fc1ccc(C2CCNCC2COc2ccc3c(c2)OCO3)cc1 (stereo not drawn)	1.9	/	8.3	1.3%	0.5%
26	CC1=C(/C=C/C(C)=C/C=C/C(C)=C\C(=O)O)C(C)(C)CCC1	/	/	2.7	/	/

item	KCNH2 3.1 inh	CXXC DNA block	PKM2 activator	FBPA coupling cs	Menin MLL FP TR
17	-13.4	-7.8%	-1.6%	-8.5	14.0%
18	2.7	-4.0%	-14.9%	2.4	18.4%
19	15.5	/	/	2.1	9.7%[24.8 µM]
20	0.5	0.7%	/	0.6	-5.2%[24.8 µM]
21	/	1.8%	6.8%	-0.1	-8.5%
22	-6.3	1.9%	-7.1%	1.0&-1.0&1.3	?
23	/	-8.7%	/	/	-3.9%
24	/	7.1%[51.4 µM]	/	0.3	-23.2%[24.8 µM]
25	11.4	4.7%	/	-1.4	?
26	20.0	-3.8%	/	6.7&3.5	7.6%&1.6%&0.1%
